RE007 growth inh – less growth of the S. pombe RE007 Vpr strain; hit rate 0.21% among 360,000; AID 651644; Potency, µM (doses to about 92.2 µM), inactives show top-dose activity change, negative = less growth; S. pombe RE007 Vpr strain, BacTiter-Glo ATP luminescence, 24 h; control for the full effect not named in the record; active = well fitted falling curve with a large enough effect; inconclusive = small, poorly fitted or top-dose-only effect; inactive = no such curve, though single readings can be large or run the other way;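 note: % is set by controls: 0 for no effect and ±100 for the full control effect; nearly all actives have a fitted effect of over 50% in size; the assay follows cell death caused by Vpr and the record does not say whether a fall means rescue or toxicity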
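Fission yeast RE007 carrying one integrated HIV-1 vpr copy, seeded at OD 0.01 in PMG+AL medium with 23 nL pinned compound. Grown 24 h at 30 degrees; viability read by BacTiter-Glo luminescence after 5 min.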
StopGo reporter – FMDV 2A StopGo reporter, luciferase signal. human cells with a luciferase reporter of 2A StopGo recoding; control for the full effect not named in the record. Potency, µM (highest dose often 57.9 µM), inactives show at the highest dose signal change, negative = less light. hit rate 1.2% among 410,000; active = well fitted falling curve with a large enough effect; inconclusive = small, poorly fitted or top-dose-only effect; inactive = no such curve, though single readings can be large or run the other way; tested in HEK293T cells; note: % is set by controls: 0 for no effect and ±100 for the full control effect; nearly all actives have a fitted effect of over 45% in size; luciferase light after 4 h
SARS PLP yeast – inhibitors of SARS-CoV papain-like protease in yeast; S. cerevisiae expressing SARS-CoV PLpro, growth rescue; control for the full effect not named in the record; Potency, µM (series often up to 32.9 µM), for the others: at the top dose activity, positive = growth rescue; hit rate 0.19% among 330,000; AID 485353; active means well fitted rising curve with a large enough effect; inconclusive means small, poorly fitted or top-dose-only effect; inactive means no such curve, though single readings can be large or run the other way; note: 0% is about no effect; nearly all actives have a fitted effect of over 55% in size; growth read by luminescence after 48 h
Numbers without * were called inactive; u = inconclusive; & = joins results of further samples; [ ] = dose if it differs, or a comment. Potency is the fitted concentration of half-maximal effect.

no. | SMILES | RE007 growth inh | StopGo reporter | SARS PLP yeast
1 | CCCNC(=O)C(Cc1cccc(OC)c1)NC(=O)c1ccc(C#N)cc1 (configuration not stated) | 0.8% | -11.7% | -18.5%
2 | O=C(c1cc(-c2ccc(F)cc2)on1)N1CCCc2ccccc21 | -12.5% | 24.8% | -3.7%
3 | CC[C@@H]1CCCCc2ccccc2[C@@H](C(=O)C[C@H](O)CC(C)=O)OC1=O | -1.9% | -18.3% | -0.4%
4 | CC(=O)c1ccc(OCCCC(=O)NNC(=O)c2ccccn2)cc1 | -4.1% | -13.5% | 1.3%
5 | COc1ccc(-c2sc3ccc(N4CCOCC4)cc3c2-c2ccc(O)cc2)cc1 | u | -14.1% | -0.5%
6 | C=CC[C@H](CC(=O)OC(C)(C)C)C(=O)OC[C@H]1CCCN1C(=O)[C@@H](CC=C)CC(=O)N(CCO)Cc1ccccc1 | 23.2% | -19.1% | 1.2%
7 | CC1CCc2sc(C(=O)N3CCC(C(N)=O)CC3)cc2C1 (configuration not stated) | -12.0% | 78.9%[activator] | -24.0%
8 | c1ccc(C[C@H]2CN=C(Nc3ccccc3)N2CCCC2CCCCC2)cc1 | -4.1% | -18.5% | 9.5%
9 | CCOC(=O)C1CCN(C(=O)COC(=O)/C=C/c2ccccc2)CC1 | -4.3% | u | 0.1%
10 | Cc1cccc(NC(=O)c2nc[nH]c2C(=O)NC2CCN(C(=O)OC(C)(C)C)CC2)c1 | 1.0% | u | -2.3%
11 | CC1CC(C)CN(C(=O)CNC(=O)c2sc3ccccc3c2Cl)C1 (configuration not stated) | -15.3% | 7.4% | -4.9%
12 | O=C(Nc1ccc(F)cc1F)c1cccc(S(=O)(=O)N2CCCCC2)c1 | 7.4% | -4.8% | 1.0%
13 | O=C(c1ccccc1Cc1ccccc1)N1CCN(S(=O)(=O)c2ccccc2F)CC1 | 1.9% | u | 0.4%
14 | CC[C@H](C)[C@@H]1NC(=O)[C@H]([C@@H](C)CC)NC(=O)[C@@H](CC(C)C)NC(=O)[C@H](Cc2ccccc2)NC(=O)[C@H](Cc2ccccc2)NC(=O)[C@@H]2CCCN2C(=O)[C@@H]2CCCN2C(=O)[C@H](C(C)C)NC(=O)[C@H](CC(C)C)NC1=O | -8.8% | -10.2% | -3.5%
15 | CS(=O)(=O)c1ccc(-c2sc3ccccc3c2C#CCCO)cc1 | -3.3% | u | 16.3%
16 | CN(C(=O)c1ccc(NC(=O)Cc2ccc(NC(=O)C3CCN(C(=O)C4CC4)CC3)cc2)cc1)C1CC1 | 3.6% | 6.0% | -4.6%
17 | COc1ccc(OCC(=O)Nc2ccc3c(c2)CCC3)cc1 | u | 27.4% | 8.4%
18 | COc1cc2cc(Oc3ccc4ccc(=O)oc4c3)c(=O)oc2cc1O[C@@H]1O[C@H](CO)[C@@H](O)[C@H](O)[C@H]1O | 20.6% | -4.9% | -39.9%
19 | Cc1ccccc1-c1cc(C(=O)NCc2ccco2)nn1CC1CC(c2cccc([N+](=O)[O-])c2)=NO1 (configuration not stated) | 4.0% | 0.5% | -2.4%
20 | CN(Cc1ccccc1)C(=O)c1ccc(S(=O)(=O)N(C)c2ccccc2)cc1 | -14.0% | -16.9% | -8.2%
21 | Cc1nc(SCC(=O)N(C)C2(C#N)CCCCC2)c2ccccc2n1 | 1.7% | u | -3.9%
22 | CNS(=O)(=O)c1cccc(C(=O)OCC(=O)c2ccc(S(=O)(=O)N3CCCCC3)cc2)c1 | 6.8% | -8.8% | 3.6%
23 | C[C@H]1CN([C@@H](C)CO)C(=O)c2cc(NS(=O)(=O)c3ccc(F)cc3)ccc2O[C@H]1CN(C)S(=O)(=O)c1cn(C)cn1 | 35.0% | -7.6% | 19.1%
24 | O=C(COC(=O)c1ccc(O)cc1O)NC1CCCCCC1 | 0.1% | -3.0% | 0.6%
25 | CC[C@]12c3[nH]c4ccc(OC)cc4c3CCN1C(=O)C(CC(=O)NCc1ccco1)C[C@@H]2C(=O)N1CCN(C(=O)C2CC2)CC1 (some centres not stated) | 2.2% | -13.7% | 17.4%
26 | COc1cc2c(C#CCCCO)c(-c3ccsc3)oc(=O)c2cc1OC | -3.5% | -24.5% | 1.2%
27 | O=C(CN1CCN(Cc2ccc(Cl)cc2)C1=O)NCc1cccs1 | 11.7% | -10.8% | -2.7%
28 | Cc1cccc(C(=O)OCC(=O)c2csc(N3CCCCC3)n2)c1[N+](=O)[O-] | 11.4% | -0.7% | -0.9%
29 | CC(C)(C)OC(=O)NCc1ccc(NC(=O)c2nc[nH]c2C(=O)NCCCCCCNC(=O)c2[nH]cnc2C(=O)Nc2ccc(CNC(=O)OC(C)(C)C)cc2)cc1 | 1.0% | 0.0% | -4.1%
30 | O=c1c(O[C@@H]2O[C@H](CO)[C@@H](O)[C@H](O)[C@H]2O)c(-c2ccc(O)cc2)oc2cc(O)cc(O)c12 | 12.4% | 2.4% | -3.9%
31 | COc1cc(CN2CCN(Cc3ccc([N+](=O)[O-])cc3)CC2)c([N+](=O)[O-])cc1OC | 4.3% | u | -1.0%
32 | CCOC(=O)c1c(NC(=O)CN2C(=O)C(=O)N(C(C)C)C2=O)sc(C)c1CC | 3.2% | -11.0% | 5.8%
33 | COc1ccc(NC(=O)CSc2nncs2)cc1S(=O)(=O)N1CCCCC1 | -3.4% | -10.8% | -1.8%
34 | CSC1=NCCN1S(=O)(=O)c1ccc(Cl)cc1 | 4.6% | 2.5% | 4.6%
35 | COc1ccc(C(CNC(=O)c2cc3ccccc3o2)N2CCCC2)cc1 (configuration not stated) | -1.5% | -5.4% | -0.5%
36 | Cc1ccc(S(=O)(=O)N2CCN(C(=O)Cn3c(=O)cnc4ccccc43)CC2)cc1 | -15.9% | 0.0% | 2.3%
37 | C[C@@H](NC(=O)c1[nH]cnc1C(=O)Nc1ccccc1)c1ccccc1 | 16.3% | u | 7.7%
38 | O=C(CCNS(=O)(=O)c1cccc(C(F)(F)F)c1)NCc1ccco1 | -14.8% | 3.0% | 2.5%
39 | O=C1NC(=O)N(c2ccc3c(c2)OCO3)C(=O)/C1=C/c1ccsc1 | 6.1% | u | -0.6%
40 | COc1ccc(C(=O)COC(=O)Cn2[nH]c(=O)c3ccccc3c2=O)c(OC)c1 | -2.9% | 4.1% | -17.2%
41 | Cc1cccc(-n2ccnc2SCC(=O)c2c(N)n(C3CC3)c(=O)[nH]c2=O)c1C | 4.4% | -26.0% | 3.2%
42 | Cc1nc(NC(=O)COC(=O)/C=C/c2ccco2)c(Cl)cc1Cl | 14.0% | 3.8% | 0.4%
43 | CCN(C(=O)CSc1nccc(=O)[nH]1)C1CCCCC1 | 7.4% | -15.2% | -1.7%
44 | Cc1ccc(NS(=O)(=O)c2ccc(Cl)c(N=Nc3c(O)[nH]c(=O)[nH]c3=O)c2)cc1Cl | 0.5% | 51.0%[activator] | 14.8%
45 | COc1ccc(S(=O)(=O)Nc2ccc3c(c2)C(=O)N([C@H](C)CO)C[C@H](C)[C@@H](CN(C)C(=O)NC2CCCCC2)O3)cc1 | -1.4% | 4.9% | -18.3%
46 | CNC(=O)c1ccc(NC(=O)CCc2c(C)noc2C)cc1 | 17.9% | -15.6% | -1.8%
47 | COc1cc(C2=CN(Cc3ccccc3)CCC2=O)cc(OC)c1OC | 8.6% | -0.9% | -0.3%
48 | CCN(CC)C(=O)c1[nH]cnc1C(=O)Nc1ccc(Cl)cc1 | -15.0% | 17.8% | -0.6%
49 | COc1cc(OC)cc(-c2c(-c3ccc(F)cc3)c3cc(-c4ccc(OC)nc4)ccc3n2C)c1 | -10.3% | u | 8.8%
50 | Cc1nc(COC(=O)c2cc(O)c3ccccc3c2O)cs1 | -10.3% | 9.4% | -7.0%
51 | C[C@H]1COC(=O)CC/C=C\C[C@H](CC(=O)N(CCO)Cc2ccccc2)C(=O)N1 | -2.4% | 0.0% | -4.7%
52 | CCc1c(C2(O)CCCCC2)[nH]c2cnccc12 | -16.1% | -6.6% | -18.1%
53 | CCN(C(=O)COC(=O)c1ccc(C=O)cc1)c1c(N)n(Cc2ccccc2)c(=O)[nH]c1=O | -6.4% | -22.1% | 5.0%
54 | COc1cccc2sc3cc(C#CC4(O)CCCCC4)ccc3c(=O)c12 | -4.6% | -3.1% | -38.9%
55 | O=C(Cc1ccc(Cl)cc1)SCc1ccccc1 | 0.5% | 9.6% | 1.1%
56 | O=C(c1ccc(Cl)nc1)N1CCN(S(=O)(=O)c2ccc3c(c2)OCCO3)CC1 | 26.6% | -13.2% | 0.8%
57 | CN(Cc1ccccc1F)C(=O)CCNC(=O)c1ccc(C(C)(C)C)cc1 | -1.7% | 4.5% | -2.2%
58 | COc1cc(/C=C/C(=O)Nc2cccc(S(=O)(=O)N3CCOCC3)c2)ccc1OCC#N | 10.0% | u | 3.5%
59 | COc1cccc(/C=C/C(=O)OCC(=O)c2ccc3c(c2)NC(=O)CO3)c1 | 2.6% | u | 4.8%
60 | COc1ccc(CCNCc2cccc(C(F)(F)F)c2)cc1OC | -3.2% | -8.9% | 0.3%

(list continues)
no. | SMILES | RE007 growth inh | StopGo reporter | SARS PLP yeast
61 | CCCCCCN(C(=O)CCCN1C(=O)NC(c2ccc(-c3ccccc3)cc2)C(C(=O)OCc2ccccc2)=C1C)C(C)C(=O)NCCCC (configuration not stated) | -7.8% | -17.2% | 16.4%
62 | COc1cc([N+](=O)[O-])ccc1NC(=O)CN1CCOCC1 | -2.4% | -5.0% | 0.4%
63 | Cc1ccc(CNC(=O)c2ccc(N(C)C)cc2)cc1 | -14.9% | 30.3%[activator] | 22.2%
64 | O=C(Nc1ccnc(-c2ccncc2)n1)c1ccccc1Cl | 9.7% | 3.2% | -0.2%
65 | COc1ccccc1C(=O)OCC(=O)NC(=O)NC1CCCC1 | -16.4% | -1.3% | 0.9%
66 | COc1ccc(-c2c(-c3cc(OC)cc(OC)c3)n(C)c3ccc(-c4ccc5cc[nH]c5c4)cc23)cc1 | 0.1% | 8.5% | 1.8%
67 | Cc1c(NC(=O)COC(=O)/C=C/c2cccc(Cl)c2)c(=O)n(-c2ccccc2)n1C | -4.7% | -12.2% | 1.6%
68 | C#CCOCCOCCOCCNc1nc(N2CCN(C(=O)CCCCCCCCCCNC(=O)[C@@H](CCSC)n3cc(CCO)nn3)CC2)nc(N2CCN(C(=O)CCCCCCCCCCNC(=O)[C@H](CCCN=C(N)N)n3cc(C[C@@H](C)CC)nn3)CC2)n1 | -1.7% | u | 10.6%
69 | CC(C)CCN1CCC(Cc2ccccc2)(NC(=O)c2ccccc2)C1=O (configuration not stated) | -8.6% | 15.6% | -5.1%
70 | O=C(NCCOc1ccc(Cl)cc1)c1ccc2c(c1)OCCO2 | 9.7% | 28.9% | 6.7%
71 | CN(C)C1=NCCN1CCc1ccccc1 | -1.6% | -11.4% | 1.9%
72 | COc1ccc(-c2nc3cnccn3c2NC2CCCCC2)cc1-c1cccc(Cl)c1 | 5.4%&-12.3% | -28.9%&-23.8% | -5.9%

Rewritten screen by screen: entries from further up
46) CNC(=O)c1ccc(NC(=O)CCc2c(C)noc2C)cc1
47) COc1cc(C2=CN(Cc3ccccc3)CCC2=O)cc(OC)c1OC
48) CCN(CC)C(=O)c1[nH]cnc1C(=O)Nc1ccc(Cl)cc1
49) COc1cc(OC)cc(-c2c(-c3ccc(F)cc3)c3cc(-c4ccc(OC)nc4)ccc3n2C)c1
50) Cc1nc(COC(=O)c2cc(O)c3ccccc3c2O)cs1
Assay by compound | 46 | 47 | 48 | 49 | 50
RE007 growth inh | 17.9% | 8.6% | -15.0% | -10.3% | -10.3%
StopGo reporter | -15.6% | -0.9% | 17.8% | u | 9.4%
SARS PLP yeast | -1.8% | -0.3% | -0.6% | 8.8% | -7.0%

More records follow.
no. | SMILES | RE007 growth inh | StopGo reporter | SARS PLP yeast
73 | CC(C)(C)OC(=O)C[C@@H]1C/C=C\C[C@H](CC(=O)N(CCO)Cc2ccccc2)C(=O)N[C@H](C(C)(C)C)COC1=O | -6.9% | -6.6% | -6.9%
74 | C=C1C(O)[C@@H]2O[C@]3(CC[C@H](/C=C/C(C)[C@@H]4CC(C)=CC5(O[C@H](C[C@@](C)(O)C(=O)O)CCC5O)O4)O3)CC[C@H]2O[C@@H]1C(O)CC(C)[C@H]1OC2(CCCCO2)CCC1C (some centres not stated) | u | 1µM* | -6.6%
75 | CC(C)(C)[C@@H]1COC(=O)[C@@H](Cc2ccc(F)cc2)C/C=C\C[C@H](CC(=O)N(CCO)Cc2ccccc2)C(=O)N1 | 22.0% | -14.1% | -31.0%
76 | NC(=O)c1ccc(-c2nnn(CC(=O)Nc3cccc(S(=O)(=O)N4CCCC4)c3)n2)cc1 | 1.7% | 48.5%[activator] | 5.6%
77 | CC1CC(C)(C)CC2(C1)NC(=O)N(CC(=O)N1CCN(S(=O)(=O)c3cccs3)CC1)C2=O (configuration not stated) | -4.8% | -6.2% | -9.3%
78 | COc1ccc(C(=O)NC(C(=O)NCC2(N3CCCCC3)CCCCC2)C(C)C)cc1 (configuration not stated) | -11.5% | -18.3% | 0.7%

Bioassay records: PubChem, National Center for Advancing Translational Sciences (NCATS)

Only part of the results is shown. The share of hits here may be higher or lower than overall.
